YopH PTP inh: YopH tyrosine phosphatase inhibitors, primary screen, biochemical, fluorescence Ex485/Em525; inhibition, %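 (about 10 µM by stock and volumes)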; 140,000 compounds, 0.16% hits; AID 898, 2007;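 active = inhibition of 50% or more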;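 also: controls were vehicle for no effect and minimum signal wells for full effect; inactives centre near -20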
Arbovirus anti: antivirals against arbovirus infection, primary screen, cell-based, full library, 10K replicate subset. arbovirus infection cell-based antiviral screen. inhibition, % at 10 µM. 200,000 compounds, 0.37% hits;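 active = inhibition from about 30%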;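 also: bluetongue infection of BSR cells; cell survival read as ATP light after 72 h; 0% = infected wells without compound and 100% = uninfected wells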
Mtb betalactam: beta-lactam sensitization of Mtb H37Rv, H37Rv. AID 434955, 2010. M. tuberculosis H37Rv growth with meropenem, percent inhibition; hits of this screen are not shown here. inhibition, % at 25 µM. 330,000 compounds, 0.27% hits;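 active = about 74% or more and at least 40 points above the plate without the antibiotic, then above 30% in a dose series; inconclusive = first-round hits that could not be retested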;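 also: growth measured after seven days incubation then overnight dye step; 0% = bacteria only wells and 100% = bacteria with antibiotic; twin plates without the antibiotic show which effects depend on it; some results filed as inactive read as strong as hits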
Mtb H37Rv: M. tuberculosis H37Rv growth inhibitors, H37Rv strain (AID 1626); inhibition, % at 10 µM, or IC50 in µM where a hit was titrated; 220,000 compounds, 0.95% hits; M. tuberculosis H37Rv growth inhibition; higher % means a stronger effect;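 active = confirmed in a dose series; inconclusive = inhibition above 80% but not taken into the dose series; inactive = below 80% or under 30% at every dose of the series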;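 also: bacteria incubated seven days before Alamar blue readout; 0% = bacteria only wells and 100% = bacteria with antibiotic wells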
RecA intein inh: Mtb RecA intein splicing inhibitors, primary screen, biochemical, fluorescence, HTS; Protein RecA (Mycobacterium tuberculosis (strain ATCC 25618 / H37Rv)), P9WHJ3; cell-free RecA intein splicing; inhibition, %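 (about 9 µM by stock and volumes)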; 290,000 compounds, 0.75% hits; AID 2221, 2009; in the data active = inhibition above about 30%; inconclusive = no clear call, values can overlap the other calls;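 also: 0% = vehicle wells and 100% = reference inhibitor control wells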
Target sequence (P9WHJ3 whole entry, looked up): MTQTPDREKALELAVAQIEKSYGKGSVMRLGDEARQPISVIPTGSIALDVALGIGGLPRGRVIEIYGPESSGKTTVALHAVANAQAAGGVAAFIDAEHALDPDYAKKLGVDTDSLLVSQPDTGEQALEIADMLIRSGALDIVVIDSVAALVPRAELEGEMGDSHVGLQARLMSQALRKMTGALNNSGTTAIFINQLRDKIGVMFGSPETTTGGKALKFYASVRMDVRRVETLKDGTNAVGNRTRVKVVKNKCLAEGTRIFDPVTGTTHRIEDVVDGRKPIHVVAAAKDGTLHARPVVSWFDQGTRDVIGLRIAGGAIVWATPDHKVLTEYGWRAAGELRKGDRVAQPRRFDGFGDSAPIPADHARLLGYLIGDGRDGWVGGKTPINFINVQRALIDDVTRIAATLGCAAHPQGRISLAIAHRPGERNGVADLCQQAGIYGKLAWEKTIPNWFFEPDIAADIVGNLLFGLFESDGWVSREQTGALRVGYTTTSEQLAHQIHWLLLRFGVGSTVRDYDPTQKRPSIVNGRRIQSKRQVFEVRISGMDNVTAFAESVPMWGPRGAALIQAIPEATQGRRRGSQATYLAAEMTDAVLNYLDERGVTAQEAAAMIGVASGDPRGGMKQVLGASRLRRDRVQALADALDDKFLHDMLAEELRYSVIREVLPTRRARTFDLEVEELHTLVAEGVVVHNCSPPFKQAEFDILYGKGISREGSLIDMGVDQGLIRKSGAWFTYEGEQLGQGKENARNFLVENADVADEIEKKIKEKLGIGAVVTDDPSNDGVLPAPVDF
An asterisk follows results filed as active.

What do the screens show for `CNc1nc(OC)nc(N2CCOCC2)n1`?
YopH PTP inh: 6; Arbovirus anti: 1; Mtb betalactam: -4; Mtb H37Rv: -10%; RecA intein inh: -6.7

What do the screens show for `Cc1cc(-c2ccccc2)nc(N(C)NC(=O)c2cccc(C(F)(F)F)c2)c1S(C)(=O)=O`?
YopH PTP inh: 6; Arbovirus anti: 3; Mtb betalactam: -12; Mtb H37Rv: 3%; RecA intein inh: -3.1

What do the screens show for `Cn1c(SCC(=O)N2CCCCC2)nnc1-c1ccc(S(=O)(=O)N2CCOCC2)cc1`?
YopH PTP inh: -43; Arbovirus anti: 2; Mtb betalactam: -4; Mtb H37Rv: -12%; RecA intein inh: -2.6

How did O=C(CS(=O)(=O)c1ccc(C(F)(F)F)cn1)NNC(=O)c1ccccc1 do in these assays?
Mtb betalactam: -1; Mtb H37Rv: -1%; RecA intein inh: 0.9

What do the screens show for `O=C(CSc1nc(-c2ccccc2)cc(=O)[nH]1)N1CCOCC1`?
YopH PTP inh: -43; Arbovirus anti: 10; Mtb betalactam: -5; Mtb H37Rv: 7%

Results for CCCCn1c(N)c(N(CCC(C)C)C(=O)c2cc(CC)c(C)s2)c(=O)[nH]c1=O ?
Mtb betalactam: 3; RecA intein inh: 1.5

Results for Cc1ccc(S(=O)(=O)CCC(=O)OCC(=O)Nc2cc(C)on2)cc1 ?
YopH PTP inh: -28; Arbovirus anti: 10; Mtb betalactam: 2; Mtb H37Rv: -7%; RecA intein inh: -1.2

How did Cc1[nH]c2ccccc2c1N=Nc1ccc(F)cc1 do in these assays?
Arbovirus anti: -33; Mtb betalactam: 68; Mtb H37Rv: 3%; RecA intein inh: 19

Results for CCn1nccc1C(=O)Nc1cc(Cl)ccc1Cl ?
YopH PTP inh: -35; Arbovirus anti: 1; Mtb betalactam: -16; Mtb H37Rv: -6%; RecA intein inh: -9.4

Results for O=C(Nc1nc(-c2ccccc2)cs1)c1ccc(S(=O)(=O)N2CCc3ccccc32)cc1 ?
YopH PTP inh: 13; Arbovirus anti: 20; Mtb betalactam: 2; Mtb H37Rv: 15%; RecA intein inh: 3.0

What do the screens show for `Cc1cc(NCCCN)nc(-c2ccccc2O)n1`?
YopH PTP inh: -37; Arbovirus anti: -19; Mtb betalactam: -14; Mtb H37Rv: 4%; RecA intein inh: -2.0

Results for CCOC(=O)c1c(NC(=O)CSc2nnc(C)s2)sc2c1CCCCC2 ?
YopH PTP inh: -9; Arbovirus anti: 6; Mtb betalactam: 18; Mtb H37Rv: -2%; RecA intein inh: 10

Results for O=C(NCCCN1CCOCC1)c1cccc(S(=O)(=O)N2CCN(c3ccccc3)CC2)c1 ?
Mtb betalactam: 1; RecA intein inh: -1.6

Results for CCC(C)c1ccc(NC(=S)Nc2ccc(OC)cc2)cc1 (stereo not drawn) ?
YopH PTP inh: -10; Arbovirus anti: 10; Mtb betalactam: 90; Mtb H37Rv: 58%; RecA intein inh: 2.9

How did COc1cccc(C(=O)Nc2c3c(nn2-c2ccccc2C)CS(=O)C3)c1OC (stereo not drawn) do in these assays?
YopH PTP inh: -39; Arbovirus anti: 4; Mtb betalactam: 2; RecA intein inh: -0.8

How did CC(C)(C)OC(=O)N1Cc2ccccc2C[C@H]1C(=O)O do in these assays?
YopH PTP inh: -17; Arbovirus anti: 12; Mtb betalactam: 0; Mtb H37Rv: -1%; RecA intein inh: 2.7

How did O=C1C2C3C=CC(CC3)C2C(=O)N1c1ccccc1F (stereo not drawn) do in these assays?
Mtb betalactam: 3; RecA intein inh: -12

How did Cc1ccc(OCCN2CCCC2)cc1 do in these assays?
Mtb betalactam: -7; RecA intein inh: -0.1

What do the screens show for `COC(=O)CC1C(=O)NCCN1C(=O)NC1CCCCC1` (stereo not drawn)?
YopH PTP inh: -26; Arbovirus anti: -2; Mtb betalactam: -2; Mtb H37Rv: -7%; RecA intein inh: -0.3

What do the screens show for `NC1=NC(=O)CC(C(=O)NCCc2ccccc2)S1` (stereo not drawn)?
YopH PTP inh: -30; Arbovirus anti: 1; Mtb betalactam: 1; Mtb H37Rv: -12%; RecA intein inh: -0.6

The list goes on; it opens with the 5 that closed the last part.
How did CC(C)(C)OC(=O)N1Cc2ccccc2C[C@H]1C(=O)O do in these assays?
YopH PTP inh: -17; Arbovirus anti: 12; Mtb betalactam: 0; Mtb H37Rv: -1%; RecA intein inh: 2.7

How did O=C1C2C3C=CC(CC3)C2C(=O)N1c1ccccc1F (stereo not drawn) do in these assays?
Mtb betalactam: 3; RecA intein inh: -12

How did Cc1ccc(OCCN2CCCC2)cc1 do in these assays?
Mtb betalactam: -7; RecA intein inh: -0.1

What do the screens show for `COC(=O)CC1C(=O)NCCN1C(=O)NC1CCCCC1` (stereo not drawn)?
YopH PTP inh: -26; Arbovirus anti: -2; Mtb betalactam: -2; Mtb H37Rv: -7%; RecA intein inh: -0.3

What do the screens show for `NC1=NC(=O)CC(C(=O)NCCc2ccccc2)S1` (stereo not drawn)?
YopH PTP inh: -30; Arbovirus anti: 1; Mtb betalactam: 1; Mtb H37Rv: -12%; RecA intein inh: -0.6

How did Cc1cccc(CN2C(=O)c3ccccc3Sc3ccc(C(=O)NCCN4CCOCC4)cc32)c1 do in these assays?
Arbovirus anti: -24; Mtb betalactam: -1; Mtb H37Rv: -2%; RecA intein inh: 7.4

Results for O=C(CCCn1c(=S)[nH]c2ccccc2c1=O)NC1CCCCC1 ?
YopH PTP inh: 16; Arbovirus anti: -8; Mtb betalactam: 0; Mtb H37Rv: -7%; RecA intein inh: -1.3

Results for COC(=O)c1cccc(N2C(=O)C3C4C=CC(CC4)C3C2=O)c1 (stereo not drawn) ?
Mtb betalactam: -7; RecA intein inh: -0.3

Results for COc1ccc(C(C)(C)NC(=O)C2CCC(=O)N(C3CC3)C2)cc1OC (stereo not drawn) ?
Mtb betalactam: -3; RecA intein inh: -10

Results for O=S(=O)(NCc1ccc2c(c1)OCO2)c1ccc(F)cc1 ?
Mtb betalactam: 5; RecA intein inh: -2.3

Results for COc1ccc(OC)c(NC(=O)c2cccc3c2C(=O)N(C2CCCCC2)C3)c1 ?
Mtb betalactam: -3; RecA intein inh: 0.2

What do the screens show for `COc1ccc(/C=C/C=C2\N=C(SC)SC2=O)cc1`?
YopH PTP inh: -17; Arbovirus anti: -3; Mtb betalactam: 94; Mtb H37Rv: 49%; RecA intein inh: 0.2

How did COc1cccc(OCC(=O)NNC(=O)CCc2ccccc2)c1 do in these assays?
Arbovirus anti: 0; Mtb betalactam: 0; Mtb H37Rv: -5%; RecA intein inh: 0.5

How did Cc1ccc(C)c(N2CCN(C(=O)c3ccc(CSc4nc5ccncc5[nH]4)cc3)CC2)c1 do in these assays?
YopH PTP inh: -30; Arbovirus anti: -15; Mtb betalactam: inconclusive; Mtb H37Rv: 0%; RecA intein inh: 3.4

What do the screens show for `C/C(Nc1ccc(C)cc1)=C(/C#N)C(N)=O`?
YopH PTP inh: -19; Arbovirus anti: -4; Mtb betalactam: -5; Mtb H37Rv: -5%; RecA intein inh: -1.6

What do the screens show for `CCCCc1c(O)nc(SC2CC(=O)N(c3ccc(C(=O)OCC)cc3)C2=O)[nH]c1=O` (stereo not drawn)?
Mtb betalactam: -1; RecA intein inh: 4.1

Results for Cc1cc(NC(=O)CSc2nc(N)c(NC(=O)c3ccccc3F)c(=O)[nH]2)no1 ?
Mtb betalactam: -7; RecA intein inh: -5.3

How did O=C(Nc1ccc(Br)c2cccnc12)c1ccc(Cn2cc([N+](=O)[O-])cn2)o1 do in these assays?
YopH PTP inh: -18; Arbovirus anti: -12; Mtb betalactam: -7; Mtb H37Rv: 3%; RecA intein inh: 2.4

How did Nc1nn(-c2ccccc2)c(N)c1N=Nc1ccccc1F do in these assays?
YopH PTP inh: -16; Arbovirus anti: -7; Mtb betalactam: 2; Mtb H37Rv: 2%; RecA intein inh: 8.1

What do the screens show for `CC(=O)C1=C(O)C(=O)N(Cc2cccnc2)C1c1ccc(O)cc1` (stereo not drawn)?
Arbovirus anti: 3; Mtb betalactam: 2; Mtb H37Rv: -8%; RecA intein inh: 0.5

Results for CC1CCCCN1C(=O)CSc1nc2ccsc2c(=O)n1Cc1ccccn1 (stereo not drawn) ?
YopH PTP inh: -3; Arbovirus anti: 7; Mtb betalactam: 1; Mtb H37Rv: -6%; RecA intein inh: -1.6

How did COc1ccc(/C=N/Nc2nnc(Cc3ccccc3)c(=O)[nH]2)cc1 do in these assays?
Mtb betalactam: 1; Mtb H37Rv: -8%; RecA intein inh: 7.6

How did Cc1nc2ccccc2c2oc(C(=O)NCCCN3CC(C)CC(C)C3)cc12 (stereo not drawn) do in these assays?
Mtb betalactam: 3; RecA intein inh: 1.8

How did CCCc1cc2c(cc1NS(=O)(=O)c1ccc(CCNC(C)=O)cc1)OCO2 do in these assays?
YopH PTP inh: -41; Arbovirus anti: 2; Mtb betalactam: 0; Mtb H37Rv: 5%; RecA intein inh: -0.1

What do the screens show for `Nc1ccc(C(=O)N2CCN(S(=O)(=O)c3ccc(Cl)cc3)CC2)cc1[N+](=O)[O-]`?
Mtb betalactam: -9; RecA intein inh: -2.6

What do the screens show for `CN(N)C(=S)Nc1ccc(Cl)cc1`?
Arbovirus anti: 18; Mtb betalactam: -5; Mtb H37Rv: 10%; RecA intein inh: 31*

Results for Cc1cc(O)c2c(-c3ccccc3)cc(=O)oc2c1 ?
YopH PTP inh: 27; Arbovirus anti: 5; Mtb betalactam: -7; Mtb H37Rv: 8%

How did O=C1c2ccccc2C2(c3ccc(Cl)cc3)NCCN12 (stereo not drawn) do in these assays?
YopH PTP inh: -6; Arbovirus anti: 13; Mtb betalactam: -10; RecA intein inh: -0.7

How did CC[C@H](C)[C@@H](C(=O)N1CCNCC1)n1cc([C@@H](N)CO)nn1 do in these assays?
Arbovirus anti: 2; Mtb betalactam: -7; Mtb H37Rv: -5%; RecA intein inh: 0.8

How did O=C(NCCOc1ccccc1-c1ccccc1)c1ccco1 do in these assays?
Arbovirus anti: -7; Mtb betalactam: 7; Mtb H37Rv: 3%; RecA intein inh: 5.6

How did C=CCNC(=S)NNC(=O)CC12CC3CC(CC(C3)C1)C2 do in these assays?
Mtb betalactam: 0; Mtb H37Rv: 5%; RecA intein inh: -1.1

How did Nc1ccc(C(=O)N/N=C\c2ccc(OC(=O)c3ccccc3Cl)cc2)cc1 do in these assays?
Mtb betalactam: 5; RecA intein inh: -3.1

What do the screens show for `Cc1ccc2nc(SCC(=O)Nc3cc(C)on3)nc(=O)n2c1`?
Mtb betalactam: 1; RecA intein inh: -1.5

How did Cc1cc(CN(C)C(=O)CC2C(=O)NCCN2Cc2ccc(F)c(F)c2)on1 (stereo not drawn) do in these assays?
Arbovirus anti: -1; Mtb betalactam: -5; Mtb H37Rv: -1%; RecA intein inh: -9.9

Results for O=C(CN1CCC(NC(=O)c2ccc(F)cc2)CC1)NCc1ccccc1F ?
YopH PTP inh: -94; Arbovirus anti: -5; Mtb betalactam: -3; Mtb H37Rv: -3%; RecA intein inh: 2.2

Results for Cc1ccc(-n2c(SCC(N)=O)nnc2-c2ccc(S(=O)(=O)N3CCCCC3)cc2)c(C)c1 ?
YopH PTP inh: -22; Arbovirus anti: -7; Mtb betalactam: -3; Mtb H37Rv: -2%; RecA intein inh: -0.1

How did Cc1cc(C)c(C(=O)CC2(O)C(=O)Nc3ccccc32)cc1C (stereo not drawn) do in these assays?
YopH PTP inh: -12; Arbovirus anti: 7; Mtb betalactam: 2; Mtb H37Rv: 8%; RecA intein inh: 1.6

What do the screens show for `O=C(CSc1ccc(Cl)cc1)Nc1ccccc1N1CCN(C(=O)c2ccccc2)CC1`?
YopH PTP inh: -26; Arbovirus anti: 14; Mtb betalactam: -4; Mtb H37Rv: 5%; RecA intein inh: -0.1

How did CC1CCC(NS(=O)(=O)c2ccc(N3CCCC3=O)cc2)CC1 (stereo not drawn) do in these assays?
Mtb betalactam: -4; RecA intein inh: -1.5

Results for O=C(NO)c1ccccc1O ?
YopH PTP inh: -39; Arbovirus anti: 1; Mtb betalactam: -3; Mtb H37Rv: -21%; RecA intein inh: -4.0

What do the screens show for `CC(C)(C)C(=O)Nc1ccc(N=Nc2ccccc2)cc1`?
Arbovirus anti: -7; Mtb betalactam: -4; Mtb H37Rv: 2%; RecA intein inh: 35*

How did COC(=O)c1c(NC(=O)CN2CCC3(O)CCCCC3C2c2ccc(F)cc2)sc(C)c1C (stereo not drawn) do in these assays?
YopH PTP inh: -13; Arbovirus anti: -20; Mtb betalactam: 16; Mtb H37Rv: 30%; RecA intein inh: -2.0

Results for CCN(CC(=O)N1CCOCC1)S(=O)(=O)c1ccc(F)cc1 ?
Mtb betalactam: 0; RecA intein inh: 1.0

Results for CCn1ccnc1CN(C)Cc1cn[nH]c1-c1ccc(OC)c(F)c1 ?
Arbovirus anti: 5; Mtb betalactam: 9; Mtb H37Rv: -1%; RecA intein inh: 3.1

Assay outcomes from PubChem.

These rows are one share of the data, so the mix of outcomes need not match the whole.
